INS promoter inh: inhibitors of insulin promoter-driven GFP, primary screen, imaging, TRM-6 cells (human fetal islet line), eGFP reporter, cell count; reporter expression induced with tamoxifen; inhibition, % at 2 µM; actives 0.9% (n = 130,000);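 active = inhibition above the mean plus 3 SD, with well images judged a real hit on visual review, cut at about 60% in these data, passing the limit was not always enough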
RGS16-Gao HTS: modulators of RGS16 binding to Galphao, primary screen, biochemical, human proteins, multiplexed bead flow cytometry; bead-based flow cytometry RGS16-Galphao binding, fluorescence; actives lie on both sides; binding response (% of control), % at 10 µM; actives 0.38% (n = 220,000); AID 1441, 2008;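 active = below 25% or above 175%, edge rows of some plates excepted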;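 also: Galphao activated by GDP with aluminum fluoride before binding; 100% = wells without compound and 0% = beads without RGS; some results beyond the cut were filed as inactive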
GALR2 agonist: GALR2 receptor agonists, primary screen, cell-based | activation, %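 (tested at 5 µM)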 | actives 0.48% (n = 140,000) | GALR2-expressing cells, agonist activation read-out | Galanin receptor type 2 (Homo sapiens), O43603;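 active = above mean plus 3 SD of all compounds, about 5% in these data, not always enough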;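 also: 0% = vehicle buffer wells and 100% = reference agonist at full effect; tested in CHO reporter cells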
HSV replic up: enhancers of HSV replication in host cells, fold increase, host cell viability | HSV replication augmentation in cells | maximum fold increase | actives 0.005% (n = 220,000);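 active = peak rise of 1.5-fold or more in the series; tested in PC3 cells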;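 also: first round at 10 µM; read as green reporter fluorescence; hits show the peak of a series up to 25 µM; 1 = signal of infected wells without compound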
PKD1 inh: inhibitors of human PKD1 kinase, biochemical, fluorescence polarization; Serine/threonine-protein kinase D1 (Homo sapiens), Q15139; PKD1 kinase fluorescence polarization assay; inhibition, %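 (about 10 µM by stock and volumes)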; actives 0.056% (n = 200,000);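 active = inhibition of 50% or more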;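 also: controls were vehicle for no effect and a reference inhibitor for full effect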
Target sequence (Q15139 whole entry, looked up): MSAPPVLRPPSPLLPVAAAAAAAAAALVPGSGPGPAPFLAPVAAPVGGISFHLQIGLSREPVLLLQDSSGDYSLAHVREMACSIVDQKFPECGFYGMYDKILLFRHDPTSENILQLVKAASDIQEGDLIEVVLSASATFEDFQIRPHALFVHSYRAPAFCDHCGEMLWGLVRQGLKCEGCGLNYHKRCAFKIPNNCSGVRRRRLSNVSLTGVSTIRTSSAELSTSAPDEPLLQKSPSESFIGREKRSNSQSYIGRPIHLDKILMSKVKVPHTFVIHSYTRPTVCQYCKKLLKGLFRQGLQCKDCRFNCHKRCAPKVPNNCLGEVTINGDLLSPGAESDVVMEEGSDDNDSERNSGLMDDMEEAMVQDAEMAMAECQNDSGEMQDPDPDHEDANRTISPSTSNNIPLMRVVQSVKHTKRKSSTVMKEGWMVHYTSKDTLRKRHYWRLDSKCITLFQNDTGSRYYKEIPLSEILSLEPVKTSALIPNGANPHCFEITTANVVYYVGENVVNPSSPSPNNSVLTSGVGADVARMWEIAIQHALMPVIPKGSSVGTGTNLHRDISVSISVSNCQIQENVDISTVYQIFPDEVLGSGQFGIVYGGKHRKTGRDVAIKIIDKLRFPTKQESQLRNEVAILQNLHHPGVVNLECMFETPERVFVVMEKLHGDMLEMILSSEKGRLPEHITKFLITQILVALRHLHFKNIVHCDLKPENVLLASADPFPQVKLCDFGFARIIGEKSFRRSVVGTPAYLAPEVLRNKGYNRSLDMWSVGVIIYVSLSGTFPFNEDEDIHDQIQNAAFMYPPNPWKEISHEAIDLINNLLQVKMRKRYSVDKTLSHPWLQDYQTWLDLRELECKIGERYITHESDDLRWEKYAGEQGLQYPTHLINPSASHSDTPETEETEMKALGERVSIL
INS promoter inh cell count: second read-out of INS promoter inh, no call of its own (marks repeat the call); normalized cell count, %; measured here: cell count, toxicity; reference of the scale not given here;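 cells exposed to compound for 48 h; stained nuclei by imaging scaled within each plate; lower means fewer cells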
HSV replic up primary fold: further read-out of HSV replic up, marked with its call; fold increase; compound at 10 µM; measured here: primary screen fold increase 10 uM; tested in PC3 cells;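 GFP signal in the first replicate; 1 = infected wells without compound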
Active calls of the source: *; i = inactive; · = no result given; & = joins results of further samples.

Values run as follows: INS promoter inh, INS promoter inh cell count, RGS16-Gao HTS, GALR2 agonist, HSV replic up, HSV replic up primary fold, PKD1 inh
Clc1ccc(OCCCCN2CCc3ccccc3C2)cc1
  ·, ·, 101, ·, i, 0.9, -7
COc1cc(C(=O)N(Cc2ccc(F)cc2)C2CCS(=O)(=O)C2)cc(OC)c1OC (centres undefined)
  26, 127, 104, -1.6, i, 1.2, -7
O=C1NC(=O)C(c2ccccc2)(c2ccccc2)N1
  19&23&23, 100&79&140, 100&104&101, -1.3&-1.0&-0.1, i, 0.93&0.91, 0&-7&-11
COc1ccccc1CN1CC(C(=O)NCC2CCCO2)CC1=O (centres undefined)
  28, 103, 101, -1.5, i, 0.98, -11
CC(C)OC(=O)CCC/C=C\C[C@@H]1[C@@H](CC[C@@H](O)CCc2ccccc2)[C@H](O)C[C@@H]1O
  ·, ·, 103, ·, i, 0.72, ·
Cc1ccc(OCCSc2ncnc3nc[nH]c23)cc1
  -23, 109, 135, -3.1, i, 0.96, 1
O=c1c2ccccc2c(C=NCCO)c(O)n1-c1ccccc1
  ·, ·, 83, -0.5, i, 0.98, 6
COc1ccc(C2(C(=O)NC(C)C)CCCC2)cc1OC
  45, 73, 102, 0.4, i, 0.97, -1
NC(=S)N/N=C/c1ccccc1OCCSc1ccc(Cl)cc1
  50, 134, 114, -1.0, i, 0.98, -4
COc1ccc(N2C(=O)C(F)(F)C2c2ccc(C)cc2)cc1OC (centres undefined)
  45, 90, 107, ·, i, 0.98, 3
O=C(N/N=C/c1cccs1)C1COc2ccccc2O1 (centres undefined)
  -53, 147, 92, -1.4, ·, ·, -10
Cc1nc2nc(-c3ccccc3)[nH]n2c(=O)c1Cc1ccccc1
  0, 92, 106, -0.9, i, 1, -1
Cc1cc(C(=O)CSc2nnnn2-c2ccc(O)cc2)c(C)n1C
  -33, 131, 105, ·, i, 1, -1
Cc1sc2ncnc(N3CCOCC3)c2c1C
  9, 99, -74, -2.1, i, 0.84, -5
O=C(NC(Cc1ccccc1)C(=O)O)/C(=C/c1ccccc1)NC(=O)c1cccc(Br)c1 (centres undefined)
  36, 151, 100, ·, ·, ·, 3
O=C(CCN1C(=O)/C(=C/C=C/c2ccccc2)SC1=S)Nc1ccccn1
  -100, 72, 94, ·, i, 0.94, -2
COc1ccc(C2CC(c3cccs3)=NN2C(=O)COC(=O)c2cncc(Br)c2)cc1OC (centres undefined)
  ·, ·, 100, ·, i, 0.92, -2
COc1cccc(CC(=O)N[C@@H](CCSC)c2nc3ccccc3[nH]2)c1
  ·, ·, 101, ·, i, 0.95, 3
O=C(c1cnc2c(c1)COc1ccc(Cl)cc1-2)c1ccccc1O
  23, 82, 103, -1.3, i, 0.97, -1
CN(C)S(=O)(=O)c1ccc(Cl)c(NC(=O)COC(=O)CN2C(=O)C3CCCCC3C2=O)c1 (centres undefined)
  ·, ·, 108, ·, i, 1.1, -6

Quoted from the results shown for reference:
Values run as follows: INS promoter inh, INS promoter inh cell count, RGS16-Gao HTS, GALR2 agonist, HSV replic up, HSV replic up primary fold, PKD1 inh
COc1ccc(N2C(=O)C(F)(F)C2c2ccc(C)cc2)cc1OC (centres undefined)
  45, 90, 107, ·, i, 0.98, 3
O=C(N/N=C/c1cccs1)C1COc2ccccc2O1 (centres undefined)
  -53, 147, 92, -1.4, ·, ·, -10
Cc1nc2nc(-c3ccccc3)[nH]n2c(=O)c1Cc1ccccc1
  0, 92, 106, -0.9, i, 1, -1
Cc1cc(C(=O)CSc2nnnn2-c2ccc(O)cc2)c(C)n1C
  -33, 131, 105, ·, i, 1, -1
Cc1sc2ncnc(N3CCOCC3)c2c1C
  9, 99, -74, -2.1, i, 0.84, -5
O=C(NC(Cc1ccccc1)C(=O)O)/C(=C/c1ccccc1)NC(=O)c1cccc(Br)c1 (centres undefined)
  36, 151, 100, ·, ·, ·, 3
O=C(CCN1C(=O)/C(=C/C=C/c2ccccc2)SC1=S)Nc1ccccn1
  -100, 72, 94, ·, i, 0.94, -2
COc1ccc(C2CC(c3cccs3)=NN2C(=O)COC(=O)c2cncc(Br)c2)cc1OC (centres undefined)
  ·, ·, 100, ·, i, 0.92, -2
COc1cccc(CC(=O)N[C@@H](CCSC)c2nc3ccccc3[nH]2)c1
  ·, ·, 101, ·, i, 0.95, 3
O=C(c1cnc2c(c1)COc1ccc(Cl)cc1-2)c1ccccc1O
  23, 82, 103, -1.3, i, 0.97, -1
CN(C)S(=O)(=O)c1ccc(Cl)c(NC(=O)COC(=O)CN2C(=O)C3CCCCC3C2=O)c1 (centres undefined)
  ·, ·, 108, ·, i, 1.1, -6

Other results:
Values run as follows: INS promoter inh, INS promoter inh cell count, RGS16-Gao HTS, GALR2 agonist, HSV replic up, HSV replic up primary fold, PKD1 inh
O=C(O)COCc1nc2ccccc2[nH]1
  ·, ·, 102, -1.6, i, 1, -1
O=C(N/N=C\c1ccc(Cl)cc1)c1sccc1-n1cccc1
  -32, 254, 54, -2.9, i, 0.92, -2
CCCC(O)(CCN(C)C)c1ccc(OC)cc1 (centres undefined)
  -22, 140, 101, -1.8, i, 0.84, 2
Cc1ccccc1CSCCNC(=O)CN(c1ccc2c(c1)OCO2)S(C)(=O)=O
  -212, 88, 98, -2.4, i, 1.1, -3
COc1cccc2cc3c(=O)n(-c4ccccc4)nc-3oc12
  ·, ·, 89, -2.1, i, 0.89, -3
COc1cc(NC(=O)c2ccnc(N)c2)cc(C(=O)Nc2cccc(C(F)(F)F)c2)c1
  ·, ·, 108, ·, i, 0.9, ·
CSc1cnc2c(=O)n(C)c(=O)[nH]c2n1
  -8, 97, 91, -0.4, i, 0.95, -1
Cn1cccc1/C=N/n1c(-c2ccco2)n[nH]c1=S
  ·, ·, 100, ·, i, 1.1, -4
CCc1nc2ccccc2c(C(=O)OCCN2C(=O)c3ccccc3C2=O)c1C
  29, 89, 96, -1.5, i, 1, 5
O=C(c1cccnc1)N1CCN(Cc2cccc(F)c2)CC1
  -24, 21, 100, -2.2, ·, ·, 0
COc1cccc(CNC(=O)C2=C(C)C(=O)OC23CCC(C)CC3)c1 (centres undefined)
  0, 98, 103, -1.6, i, 0.92, -5
c1cnc(Nc2nc(-c3ccc4ccccc4c3)cs2)nc1
  ·, ·, 111, -1.0, i, 0.96, -12
O=C(CSc1nc2ccccc2s1)N1CCCCC1
  -40, 140, 98, -1.5, i, 0.74, 7
COc1ccc(C2CC(c3ccc(OC)cc3)n3nc(NC(=O)c4cccs4)nc3N2)cc1 (centres undefined)
  9, 116, 102, -1.6, i, 0.78, -12
COc1cc(C)c(Cl)cc1S(=O)(=O)n1cnc2ccccc21
  -48, 120, 115, 0.2, ·, ·, 5
Brc1ccc(-c2noc(-c3ccccc3)n2)o1
  ·, ·, 101, ·, i, 0.83, ·
COc1ccccc1NC(=O)CN(C)S(=O)(=O)c1ccc(F)cc1
  56, 87, 103, -1.6, i, 0.81, -6
CCN(CC)c1ccc(/C=N/NC(=O)CN2CCCc3ccccc32)cc1
  30, 53, 91, -2.1, i, 0.96, 2
CC1CCN(C(=O)CCc2nnc(-c3ccccc3)o2)CC1
  ·, ·, 110, ·, i, 0.92, -6
O=C(/C=C/c1cc([N+](=O)[O-])ccc1OC(F)F)Nc1cccc2ccccc12
  ·, ·, 82, -0.3, i, 0.97, -3
O=C(c1ccc(Cl)c(Cl)c1)N1CCC(=O)N(C(COCc2ccc(Cl)cc2)Cc2ccccc2)CC1 (centres undefined)
  -80, 116, 111, -0.9, i, 0.8, -1
CCN(CC)c1c([N+](=O)[O-])c(=O)oc2ccccc12
  21, 135, 103, ·, i, 0.85, 2
O=C(c1ccc(N2CCCC2)c([N+](=O)[O-])c1)N1CCN(c2ccccn2)CC1
  0, 89, 99, ·, i, 0.91, 2
O=C1C=C(NNC(=O)c2ccncc2)CC(c2ccccc2)C1 (centres undefined)
  ·, ·, 98, ·, i, 1.2, -2
Cc1ccc2[nH]c(=O)c(CN(CCCN3CCOCC3)C(=O)Nc3cccc(Cl)c3)cc2c1
  -67, 110, 95, 0.4, i, 0.7, -2
Cc1ccc(C)n1CCN1CCN(S(=O)(=O)c2ccc(F)cc2F)CC1
  ·, ·, 94, ·, i, 1, ·
COc1ccc(NS(=O)(=O)c2cc(C)ccc2C)cc1
  ·, ·, 101, -3.0, i, 0.95, 4
Cn1cccc1Cc1nnc(SCC(=O)NCC2CCCO2)n1CCc1ccccc1 (centres undefined)
  ·, ·, 64, -1.4, i, 0.92, 2
CCC(C)(C(=O)NC1CCCC1)N(C(=O)CC1NC(=O)NC1=O)c1c(C)n(C)n(-c2ccccc2)c1=O (centres undefined)
  13, 138, 102, ·, i, 0.62, 1
O=C(NCc1ccccc1)N1CCC(CO)(Cc2cccc(F)c2)CC1
  ·, ·, 99, ·, i, 0.78, ·
COc1cc(/C=N/NC(=O)c2ccc(F)cc2)ccc1OC(=O)c1ccco1
  62, 71, 97, -1.9, i, 1, -5
CCn1cc(C(=O)NCC2CCCO2)c(=O)c2cc(S(=O)(=O)N(C)C)ccc21 (centres undefined)
  ·, ·, 100, -1.4, i, 0.93, -1
COCc1cc(C)nc(OCC(=O)N/N=C/c2ccc(O)cc2)c1C#N
  23, 81, 47, -1.6, i, 0.98, 3
Cc1c(Cl)c([N+](=O)[O-])nn1CCCC(=O)Nc1cccc(Cl)c1Cl
  14, 67, 107, -1.0, i, 0.95, 3
Cc1cccc(Cc2ccc(Cl)nn2)c1
  -27, 101, 100, ·, i, 1.1, -1
C=CCNc1nc(-c2ccc(O)c(C(N)=O)c2)cs1
  10, 107, 107, -1.5, i, 0.87, 6
CCOc1ccc(OCCCCn2ccnc2)cc1
  -15, 97, 104, -1.1, ·, ·, 5
COc1ccc(C(=O)CSc2nnc(-c3ccc(C)cc3)o2)cc1
  14, 128, 103, -2.1, i, 0.74, -2
Cc1cc(C(=O)CSc2nncs2)c(C)n1-c1c(C)n(C)n(-c2ccccc2)c1=O
  0, 78, 78, -2.8, i, 0.87, -14
CCc1cccc(NC(=O)CSc2nc3c(c(=O)[nH]2)CCCC3)c1
  50, 121, 111, -1.8, i, 0.97, -5
O=C(c1cn(-c2ccccc2)nc1-c1ccccc1)N1CCOCC1
  -26, 126, 104, -1.2, i, 0.8, 12
Cc1noc(C)c1S(=O)(=O)N1CCCC(C(=O)NCCC2=CCCCC2)C1 (centres undefined)
  ·, ·, 99, -1.3, i, 1.1, 7
C[C@H](CO)NC(=O)[C@@H]1C[C@H]1[C@@H](NP(=O)(c1ccccc1)c1ccccc1)c1ccccc1
  32, 103, 29, -2.6, i, 1.1, 10
CC1CCc2c(C(=O)NCc3ccco3)csc2C1 (centres undefined)
  ·, ·, 100, ·, i, 0.79, ·
NC(=O)c1ccc(N2CCN(c3ncc(C(F)(F)F)cc3Cl)CC2)cc1
  ·, ·, 99, ·, i, 0.97, ·
CN(C)S(=O)(=O)c1ccc2c(c1)C(CC(=O)O)NC2=O (centres undefined)
  3, 85, 101, -2.2, i, 0.86, 7
O=C(COC(=O)CCC1CCCC1)Nc1ccccc1OC(F)F
  ·, ·, 100, ·, i, 0.92, 3
Cc1cc(C)cc(-n2c(SCC(=O)NCc3ccco3)nc3ccccc3c2=O)c1
  44, 210, 104, -3.1, i, 0.91, -2
COc1ccc(-c2nnc(Sc3nc4ccccc4o3)c3ccccc23)cc1
  ·, ·, 105, -1.2, i, 0.91, 3
COCCN1Cc2cccc(C(=O)Nc3c(C)cc(C)cc3C)c2C1=O
  ·, ·, 103, -0.7, i, 0.84, 2
CC(=O)/C(C[N+]1(C)CCCCC1)=N\O
  14, 135, 93, -1.1, i, 0.95, 4
COC(=O)Cc1[nH]c(=S)[nH]c1C(=O)OC
  ·, ·, 100, ·, i, 0.96, ·
COC(=O)c1cc(C(=O)N2CCN(c3cccc(Cl)c3)CC2)cc([N+](=O)[O-])c1
  ·, ·, 96, ·, i, 0.79, -7
O=C(Nc1ccccc1)N(C1=NCCCCS1)c1ccccc1
  ·, ·, 102, -1.6, i, 1, 1
N#C/C(=C/c1ccc(Br)s1)C(=O)NCCc1c[nH]c2ccccc12
  ·, ·, 105, -1.7, i, 0.86, -17
COc1ccc(NC(=O)c2ccc3c(=O)n(-c4ccc(OC)cc4OC)c(=S)[nH]c3c2)cc1
  43, 41, 125, ·, i, 0.84, 2
Fc1cccc(F)c1-n1c(CN2CCCCC2)csc1=S
  ·, ·, 100, ·, i, 0.82, -2
CCN1CCCC1CNC(=O)C(=O)NC(C)c1ccccc1 (centres undefined)
  ·, ·, 205, ·, i, 0.84, -10
Nc1nnc(SCC(=O)OCC(=O)Nc2ccccc2)s1
  ·, ·, 107, ·, i, 1, -10
C=CCN1C=C2C(=O)C(C)(OC(=O)C3CCCC3)C(=O)C=C2C=C1c1ccsc1 (centres undefined)
  ·, ·, 101, ·, i, 1.1, ·

Source: PubChem BioAssay (several laboratories)
